GIV Gai3 FP = blocks GIV peptide binding to rat Galpha-i3. P08753. Galpha-i3/FITC-GIV peptide fluorescence polarization, 90 min; stronger effect = lower value; scaled: aluminum fluoride 0%, vehicle 100%. percent of control (FP), % (concentration not given with the values). 210,000 tested, 0.42% active. AID 1224905;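 active = replicate mean at 85% of control or lower, very high polarization wells dropped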;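 also: wells of about 15 µL received 100 nL stock; the first replicate is given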
Target sequence (P08753 whole entry, looked up): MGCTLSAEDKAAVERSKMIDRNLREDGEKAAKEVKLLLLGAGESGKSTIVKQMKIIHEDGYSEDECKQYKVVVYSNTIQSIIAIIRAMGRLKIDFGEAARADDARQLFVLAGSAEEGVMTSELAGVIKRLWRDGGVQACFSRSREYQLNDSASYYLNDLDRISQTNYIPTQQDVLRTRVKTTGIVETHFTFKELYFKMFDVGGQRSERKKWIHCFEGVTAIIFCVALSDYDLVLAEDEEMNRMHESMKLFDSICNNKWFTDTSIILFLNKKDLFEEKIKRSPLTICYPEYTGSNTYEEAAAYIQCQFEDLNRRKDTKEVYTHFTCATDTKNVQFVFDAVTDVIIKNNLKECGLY
Sa growth inh = inhibitors of Staphylococcus aureus growth at 42 °C. S. aureus RN4220 growth, OD600, 20 h; stronger effect = lower value. relative growth, % (concentration not given with the values). 170,000 tested, 0.53% active;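 active = growth at 42 °C up to 50% and 20 or more points under that at 30 °C, or under 10% at both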;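 also: 300 nL library stock went into each well; scaled to the means of positive and negative controls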
HCMV NEC inh = disrupts HCMV UL50-UL53 complex binding | HTRF UL50-UL53 interaction, normalized percent inhibition | inhibition, % (no concentration beside the values) | 190,000 tested, 0.15% active | AID 1918969;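 active = both replicates at 50% or more, plus weaker picks with an unusually low signal ratio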;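 also: stock transfer was 100 nL into about 20 µL; 0% = negative control wells and 100% = wells with untagged competitor protein; inactives centre near -12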
Sa growth inh second temp = recorded beside Sa growth inh, whose call it bears; relative growth, %; measured here: growth at 30 °C;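 optical density after 20 h as mean of two plates; 100% = untreated growth and lower means inhibition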
* marks the source's active call; other numbers are inactive results; · = no result given; & = joins results of further samples. The order is random; 0.82% or so of the library scored in one or more.

SMILES	GIV Gai3 FP	Sa growth inh	Sa growth inh second temp	HCMV NEC inh
CCCNC(=O)N1CCC(C(=O)c2cccc(F)c2)CC1	101	120	94	3
CC(C)NC(=O)C1CCCCC1C(=O)O (stereo not drawn)	96	137	88	-10
Cc1cc(N2CCN(c3cccc(C)c3C)CC2)nc(-c2ccccc2)n1	103	118	101	7
CC(=O)N1N=C(c2ccc(C)cc2)CC1c1cn(-c2ccccc2)nc1-c1ccccc1 (stereo not drawn)	109	·	·	-8
COc1cc(C2NC(=O)c3c(sc4c3CCN(C)C4)N2)cc(Br)c1OC(=O)c1ccc(C)cc1 (stereo not drawn)	118	84	80	-54
COC(=O)NCc1cc(OC)c(OC)c(OC)c1	101	85	95	-26
Cc1csc(C(C#N)C(=O)CSc2ccc3c(c2)OCCO3)n1 (stereo not drawn)	·	95	45	-7
O=C(O)c1cccc(NC(=S)N/N=C/c2cccc(O)c2)c1	96	94	82	-58
CCOC(=O)CC1=C(C#N)C(c2cccnc2)C(C(=O)OCC)=C(N)O1 (stereo not drawn)	·	92	83	-7
CCc1ccc(CN(C(=O)c2cc3ccccc3oc2=O)C2CCS(=O)(=O)C2)cc1 (stereo not drawn)	105	95	93	-22
COc1cccc(N2CCN(C(=O)Cn3cnc4onc(-c5ccc(F)cc5)c4c3=O)CC2)c1	108	128	104	·
Cc1nnc(C)c2c(C)n(-c3ccccc3N)c(C)c12	·	105	80	-71
COc1ccc(-n2ncc3c(NC(C)(C)CO)ncnc32)cc1	100	127	86	·
CCOc1ccc(NC(=O)CN(C)S(=O)(=O)c2ccc3c(c2)c(=O)n(C)c(=O)n3C)cc1	94	104	93	-13
O=C(c1cccc(C(F)(F)F)c1)N1CCCCC1	106	106	99	-5
N#C/C(=C\Nc1ccccc1F)c1nc(-c2cc3cc(Br)ccc3oc2=O)cs1	103	·	·	-26
CCCCn1c(CCCNC=O)nc2ccccc21	101	109	97	-8
CCOC(=O)c1nc(C)n(-c2cc(Cl)cc(Cl)c2)n1	101	·	·	-14
O=C(Nc1ccccc1F)c1ccc(-n2nc(OCc3ccc(Cl)cc3)ccc2=O)cc1	108	·	·	-18
CCc1ccc(-c2nc(CS(=O)CC(=O)NCCc3ccc(Cl)cc3)c(C)o2)cc1 (stereo not drawn)	105	112	67	·
CSc1ncc(C(=O)NCCCN2CCc3ccccc3C2)c(C)n1	116	99	100	-7
COC(=O)Cn1c(=O)oc2cc(S(=O)(=O)N3CCC(N4CCCCC4)CC3)ccc21	105	·	·	1
Clc1ccc(OCc2nn[nH]n2)cc1	98	102	100	-5
O=c1cc(CSc2nnnn2-c2ccccc2)[nH]c2nc3ccccc3n12	106	108	94	-29
O=C1OCC2=C1C(c1cccc(Cl)c1)CC(=O)N2c1ccc(C(F)(F)F)cc1 (stereo not drawn)	107	98	85	-19
Following part.
SMILES	GIV Gai3 FP	Sa growth inh	Sa growth inh second temp	HCMV NEC inh
CC(C)CCNC(=O)CCC(=O)N1Cc2ccccc2Oc2ncccc21	95	78	93	·
Cc1ccc(N2C(=O)CN(CCc3ccccc3)[C@H]3CS(=O)(=O)C[C@H]32)cc1	105	·	·	6
CCOC(=O)c1c(NC(=O)c2ccc(Cl)cc2)sc(C(=O)Nc2ccc3c(c2)OCO3)c1C	107	·	·	1
CCCN1C(=O)C(Cc2nc3ccccc3c(=O)n2-c2ccccc2)c2cc(C)ccc21 (stereo not drawn)	105	75	65	-17
Oc1ccc(C=NC2c3ccccc3-c3ccccc32)cc1	·	101	100	-53
CCc1c(C)nc(N2CCN(Cc3ccc4c(c3)OCO4)CC2)[nH]c1=O	98	·	·	-3
COc1cc(NC(=O)c2nc(-c3ccncc3)no2)cc(OC)c1OC	105	105	101	1
CCc1c(C)c2cc3c(-c4ccccc4)coc3cc2oc1=O	105	94	90	·
COc1ccc2nc(N3CCCC3)sc2c1	99	117	95	2
COCc1cc(C)nc2sc(C(=O)N(C)c3ccccc3)c(-n3cccc3)c12	106	115	94	-16
Nc1ccc(S(=O)(=O)CCSS(=O)(=O)c2ccc(N)cc2)cc1	·	101	96	-23
Cc1nc(Cl)c2c(C)c(C)n(-c3ccccc3)c2n1	101	·	·	17
O=C1CCCN2N=C(SCC(=O)Nc3ccc(F)cc3F)SC2=N1	104	·	·	-32
O=C(COc1ccccc1O)NCC1CCCO1 (stereo not drawn)	·	90	85	-10
Cc1cccc(NS(=O)(=O)c2nnc(NC(=O)c3cccc(C)c3)s2)c1	102	112	91	-12
CCCc1nnc(NC(=O)CSc2nc(-c3cccc(OC)c3)c(C#N)c(=O)[nH]2)s1	104	·	·	9
Cc1ccc2c(CNCc3cccc(Cl)c3)c(C(=O)O)n(Cc3ccc(F)cc3Cl)c2c1	108	105	92	·
CCOC(=O)c1sc(SC)c2c1CCc1conc1-2	99	104	83	-32
CCOC(=O)N1CCC(NC(=O)Cn2ncc3c4ccccc4n(C)c3c2=O)CC1	106	106	86	·
Cc1csc(NC(=O)c2cc3c(=O)n(C)c(=O)n(C)c3s2)n1	115	·	·	-11
COc1ccc(OCC(=O)N2CCC3(CC2)Nc2cc(F)ccc2-n2cccc23)cc1	106	·	·	-36
COC(=O)C(Cc1ccc(O)cc1)NC(=O)c1ccc(OC)c(OC)c1 (stereo not drawn)	104	96	98	-20
Cc1cc(NC(=O)c2cc(C)oc2C)on1	105	93	85	-18
CC(=O)N1C(=N)S/C(=C/c2cc3ccccc3nc2Sc2ccccc2)C1=O	101	134	91	·
Cc1c(C(=O)NCc2ccc(Cl)cc2)oc2ccc3c(c12)C(=O)CC(C)(C)O3	102	103	84	-31

Complete entries, quoted from the list. Screens in order: GIV Gai3 FP	Sa growth inh	Sa growth inh second temp	HCMV NEC inh
COC(=O)NCc1cc(OC)c(OC)c(OC)c1 as listed: 101	85	95	-26
CCOC(=O)c1sc(SC)c2c1CCc1conc1-2 as listed: 99	104	83	-32

New compounds follow.
SMILES	GIV Gai3 FP	Sa growth inh	Sa growth inh second temp	HCMV NEC inh
CC(=O)Oc1cc2c(C(=O)N3CCCC3)c(C)oc2c2ccccc12	103	117	87	·
O=C(Cn1c(=O)n(Cc2ccc3c(c2)OCO3)c(=O)c2ccccc21)Nc1cccc(Cl)c1	107	110	89	-9
CCc1ccc(NCc2cc3cc4c(cc3n(CC(=O)Nc3ccc(F)cc3)c2=O)OCCO4)cc1	101	76	71	·
CCCCc1cc(=O)oc2cc(C)c3c(C(C)(C)C)coc3c12	109	99	97	7
COc1ccccc1N1CCN(c2ncnc3c2cnn3-c2cc(Cl)ccc2C)CC1	105	130	100	·
O=C(O)C(Cc1ccsc1)c1ccccc1 (stereo not drawn)	·	115	90	2
C=CCSc1nn(CC(=O)OCC)c2nc3c(c(=O)n12)C(C)(C)Cc1ccccc1-3	104	·	·	-22
CCCCC(=O)Nc1ccc(SCc2cc(=O)n3oc(C)cc3n2)cc1	107	·	·	-17
Cc1cc(C)n2nc(C(=O)N/N=C/c3ccncc3)nc2n1	96	96	89	-89
Cc1ccccc1CNC(=O)CCCN1CCSc2ccccc21	105	·	·	-24
CCOC(=O)c1cc(S(=O)(=O)NCCc2ccccc2)cn1C	111	108	95	7
COc1ccc(CCNC(=O)CCc2c(C)nc3c(c(C)nn3-c3ccc(C)cc3)c2C)c(OC)c1	107	78	97	-4
Cc1ccc2c(=O)cc(C(=O)Nc3ccc(S(=O)(=O)N4CCC(C)CC4)cc3)oc2c1C	102	101	92	0
Cn1c(=O)[nH]c(=O)c2c1nc(NNC=O)n2Cc1ccc(Cl)cc1	101	118	74	-32
O=C(CC(=O)c1ccccc1)Nc1cc(C(F)(F)F)ccc1Cl	102	81	93	·
FC(F)(F)c1cccc(Sc2cnc3ccccc3n2)c1	100	·	·	-22
CCOC(=O)/C(N=O)=C(/O)c1c[nH]c2ccccc12	96	104	85	-20
COCCN1C(=O)c2[nH]nc(-c3c(C)cc(C)cc3O)c2C1c1ccc(OC)c(OC)c1 (stereo not drawn)	107	·	·	-16
COc1ccc(-c2noc(-c3cc4c(COC(C)=O)cnc(C)c4oc3=O)n2)cc1	107	85	94	-13
Cc1cc2cc(CNc3ccc(N4CCCC(O)C4)cc3)c(=O)[nH]c2cc1C (stereo not drawn)	104	91	74	-13
CCOc1ccc(S(=O)(=O)NCc2ccccc2)cc1-c1nc2c(C(C)(C)C)nn(C)c2c(=O)[nH]1	99	79	85	·
CCOC(=O)[C@@H]1Nc2ccc(C(=O)O)cc2[C@@H]2C=CC[C@H]12	63*	119	86	·
O=C1/C(=C/c2ccccc2OC(F)F)CS(=O)(=O)c2ccc(F)cc21	·	99	88	-4
COCC(=O)Oc1c(Sc2c(F)c(F)c(F)c(F)c2F)c(C)nn1C(C)(C)C	101	66	59	-19
Cc1ccc2sc(-c3ccc(N)cc3)nc2c1	103	97	85	-25
Next section:
SMILES	GIV Gai3 FP	Sa growth inh	Sa growth inh second temp	HCMV NEC inh
COC(=O)Cc1[nH]nc2c1C(C1C=CCCC1)C(C#N)=C(N)O2 (stereo not drawn)	106	78	56	-1
CN1CCN(C(=O)c2ccccc2NC(=O)c2ccc(Cl)cc2)CC1	106	103	100	-11
NC(=O)c1cnn(C2CCS(=O)(=O)C2)c1 (stereo not drawn)	105	·	·	10
CC(C)(C)OC(=O)N1CCN(c2nc(-c3ccccc3)c3ccccc3n2)CC1	100	·	·	-12
COc1ccc(C2=NN(C(=O)c3cc(OC)c(OC)c(OC)c3)C(c3ccc(C)cc3)C2)cc1OC (stereo not drawn)	96	·	·	-12
Nc1n[nH]c(C2CCCCC2)n1	103	90	83	14
CN(C)c1cccc(C(=O)N/N=C2\CCSc3ccc(F)cc32)c1	·	102	95	-56
O=C(O)C12CC3CC(C1)CC(C(=O)O)(C3)C2	95	90	89	-12
CCc1c(C)c(C#N)c2nc3ccccc3n2c1NCc1ccco1	105	103	96	-14
CCOCCCNc1nc(C)nc2onc(CC)c12	97	·	·	-26
Cc1nn2c(nc1=O)SCC2(O)c1ccccc1 (stereo not drawn)	97	94	82	-10
COC(=O)CC1SC(=O)N(c2ccc(C)cc2)C1=O (stereo not drawn)	108	87	83	-26
COC(=O)c1ccc(NC(=O)c2ccn[nH]2)cc1	98	94	77	·
CCCCn1cc(S(=O)(=O)c2ccccc2)c(=O)c2cc(F)c(N3CCC(C)CC3)cc21	105	94	83	·
O=C(O)Cc1csc(N2CCCC2=O)n1	·	84	98	0
COc1ccccc1CNC(=O)c1cc2ccc3ccc(C)[nH]c3c2n1	108	112	87	·
Cc1cccc(Nc2nnc(C)c(=O)[nH]2)c1	98	·	·	-15
O=C(NCc1ccccc1)c1ccc(CSc2nc3cccnc3n2Cc2ccccc2)cc1	95	122	106	·
CCn1nccc1C1CCCN1S(=O)(=O)c1ccc(Br)cc1 (stereo not drawn)	97	·	·	-21
O=S(=O)(Cc1noc(-c2cc(Cl)cc(Cl)c2)n1)c1ccc(Cl)cc1	107	96	91	-15
COc1ccc(C2=C(N3CCC(C(N)=O)(N4CCCCC4)CC3)c3ccccc3C2=O)cc1	96&99	79	59	-81&-28
OCC1c2ccccc2Oc2ccccc21	99	77	87	-15
COc1ccc(Cl)cc1NC(=O)C1CCN(S(=O)(=O)c2ccc(F)cc2)CC1	108	95	88	-23
COc1ccc(C(=O)Nc2nnc(C(C)C)s2)cc1OC	102	90	90	-2
CCOC(=O)c1cnc2c(OC)cccc2c1Nc1cccc(O)c1	108	94	89	-57

An excerpt of these results, with two lines to a compound:
Below each SMILES: GIV Gai3 FP, Sa growth inh, Sa growth inh second temp, HCMV NEC inh
O=C1OCC2=C1C(c1cccc(Cl)c1)CC(=O)N2c1ccc(C(F)(F)F)cc1 (stereo not drawn)
    107, 98, 85, -19
CCn1nccc1C1CCCN1S(=O)(=O)c1ccc(Br)cc1 (stereo not drawn)
    97, ·, ·, -21

Continuation.
SMILES	GIV Gai3 FP	Sa growth inh	Sa growth inh second temp	HCMV NEC inh
CC(C)(C)n1nnnc1C(c1ccccn1)N1CCN(c2cccc(C(F)(F)F)c2)CC1 (stereo not drawn)	105	98	90	-4
CCOc1cc(/C=C2\Sc3ccccc3C2=O)cc(I)c1O	263	57	67	·
O=C(NCc1ccccc1)C(=O)Nc1ccc2nc3n(c(=O)c2c1)CCCCC3	102	100	84	-23
COc1ccc(-c2nn(CC(=O)NC3CCCC3)c3c2cnc2ccc(F)cc23)cc1	102	103	93	·
Cc1cccc(C)c1OCC(=O)Nc1noc(-c2ccccc2)n1	99	·	·	4
N#Cc1ccccc1NC(=O)CSc1nc2c(cc1C#N)CCCC2	99	·	·	-1
CCc1nc(NC2CCCCC2)c(C#N)c2c1CCCC2	108	94	96	-10
CCS(=O)(=O)N1CCc2cc(C(=O)N3CCN(c4ccccc4OC)CC3)ccc21	107&102	96	92	6&-6
CCCC(Nc1ncnc2ccccc12)C(=O)O (stereo not drawn)	102	87	81	-42

Among those listed so far, these contain a furan ring, fused or not:
SMILES	GIV Gai3 FP	Sa growth inh	Sa growth inh second temp	HCMV NEC inh
CCc1c(C)c2cc3c(-c4ccccc4)coc3cc2oc1=O	105	94	90	·
Cc1cc(NC(=O)c2cc(C)oc2C)on1	105	93	85	-18
Cc1c(C(=O)NCc2ccc(Cl)cc2)oc2ccc3c(c12)C(=O)CC(C)(C)O3	102	103	84	-31
CC(=O)Oc1cc2c(C(=O)N3CCCC3)c(C)oc2c2ccccc12	103	117	87	·
CCCCc1cc(=O)oc2cc(C)c3c(C(C)(C)C)coc3c12	109	99	97	7
CCc1c(C)c(C#N)c2nc3ccccc3n2c1NCc1ccco1	105	103	96	-14
